High-throughput results as filed in PubChem.
CapD inh = blocks the Bacillus anthracis CapD enzyme | z-score (concentration not given with the values) | purified CapD enzyme, fluorescence intensity read-out; hits give low values; some hits fall short of the stated cut | actives 0.23% (n = 140,000);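 active means z-score under -4 in either of two replicates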;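 further: stock transfer was 100 nL into about 40 µL; score is relative to mean and spread of the plate; one replicate is shown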
AID504770 = growth inhibitors of E. coli YBA685 in a screen for V. cholerae RctB (chromosome II replication) inhibitors | E. coli YBA685 rctB-dependent plasmid, OD600 growth, 3 h; hits give low values | z-score (concentration not given with the values) | actives 0.27% (n = 130,000);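 active means z-score under -2 on both plates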;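 further: wells of about 30 µL received 100 nL stock; score is relative to mean and SD of the test wells; the first replicate is given; strong numbers were not always called active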
The depositor's hits bear a star; nt = not tested or not shown; & = joins results of further samples.

The line under a structure holds: CapD inh	AID504770
- COc1ccc(NC(=O)N2CCN(C/C=C/c3ccccc3)CC2)cc1
    -0.74	-1.5
- CCOC(=O)N1CCN(CC(=O)N2c3ccccc3Sc3ccccc32)CC1
    nt	3.1
- CC(C)NC(=O)CSc1nc(-c2ccc(F)cc2)cc(C(F)(F)F)n1
    55	-0.7
- O=C1NC23CCCCC2C(c2ccccc2O3)C1C(=O)N1CCOCC1 (centres undefined)
    nt	1.7
- O=C(CSc1nc(-c2ccc(F)cc2)[nH]c1-c1ccccc1)NC1CCCC1
    -0.19	-0.65
- C(=C\c1ccccc1)/CSc1ncnc2c1oc1ccccc12
    -2.1	-0.05
- CCOc1ccc(N2C(=O)/C(=C/c3ccc(Cl)cc3)SC2=S)cc1
    0.72	0.05
- CCN1CCN(CCCNC(=O)c2cc3sccc3n2Cc2ccc(F)cc2)CC1
    nt	0.05
- O=C(Oc1cccc(Nc2ncnc3ccccc23)c1)c1cccs1
    -0.29	1.1
- CCCn1c(=O)c2ccccc2n2c(SC(C)C(=O)Nc3ccc(Cl)cn3)nnc12 (centres undefined)
    nt	0.95
- COC(=O)c1cc(Oc2nc(C)nc3sc4c(c23)CCC4)cc(C(=O)OC)c1
    -1.2	nt
- Cc1ccccc1Nc1nc(N)nc(CSc2ncnc3sc4c(c23)CCC4)n1
    nt	0.45
- C1COCCNCCOCCN1
    0.58	-0.6
- CCc1ccc(N2CCN(CCNC(=O)Nc3ccccc3)CC2)cc1
    -0.41	-0.45
- Cc1ccc(-c2nn(-c3ccccc3)cc2C#N)o1
    1.3	0
- Cc1ccc(N2C(=O)C3C(C2=O)C2(C)c4ccccc4C3(C)c3ccccc32)cc1[N+](=O)[O-] (centres undefined)
    0.23	nt
- CCOc1ccccc1C(=O)NCCc1ccccc1
    0.25	0.75
- CN(C)S(=O)(=O)c1ccc2oc3nnc(SCC(=O)C(C)(C)C)n3c2c1
    nt	0.65
- CCc1cc(Br)ccc1OCC(=O)O
    0.12	-0.05
- COc1cc(CNC(C)C)cc(OC)c1
    0.5	-0.45
- Cc1nn2c(=O)/c(=C/C=C/c3ccccc3)sc2nc1=O
    -0.51	-0.15
- C=CCNC(=S)Nc1sc2c(c1C(=O)OCC)CC(C)(C)OC2
    -0.5	nt
- O=C(CCC(=O)c1cccs1)Nc1ccc(OCc2ccccc2)cc1
    0.68	0.35
- CCCOc1ccc(/C=N/NC(=O)c2cccc(S(=O)(=O)N3CCOCC3)c2)c(O)c1
    nt	2.1
- CCOC(=O)c1cnc(SCC(=O)c2ccc(Cl)cc2Cl)[nH]1
    -0.21	nt
- CC1(C)Cc2ccccc2C2=C(C(=O)N3CCCCC3)C(=O)C(=O)N21
    -0.72	nt
- COc1ccccc1OCC(=O)N1CCN(c2ccccc2)CC1
    -0.17	-1.1
- S=c1sc2c(s1)SCCS2
    nt	-0.4
- Cc1noc(-c2ccccc2)c1NC(=O)Nc1ccc2sccc2c1
    0.42	0
- O=S(=O)(NCCc1c[nH]c2ccccc12)c1ccccc1F
    -0.015	nt
- O=C(CSc1ncn[nH]1)N1c2ccccc2Sc2ccccc21
    1.4&0.39	-0.8
- CCN1C[C@]2(COC)CC[C@H](OC)[C@]34C5C[C@@H]6[C@@H](OC)CC7(OCO[C@]7([C@H]13)[C@@H](O)C24)C5[C@H]6OC (some centres undefined)
    0.33	nt
- O=C(/C=C/c1ccco1)OCc1nnc(-c2ccccc2)o1
    nt	-0.9
- CN1CC(=O)N(CN2CCN(S(=O)(=O)c3ccccc3C#N)CC2)C1=O
    nt	-0.6
- CC(C)(C)C(=O)NC(=O)Nc1nccc2cccnc12
    21	nt
- CCCS(=O)(=O)c1c(S(=O)(=O)CCC)c2c(N)cccn2c1C(=O)c1ccc(Br)cc1
    -0.63	nt
- O=C1NC(=NC2CCCC2)S/C1=C\c1ccc(-c2ccc(F)cc2)o1
    nt	0.45
- CCN1CCN(c2ncnc3c2c(-c2ccccc2)cn3-c2ccc(Br)cc2)CC1
    0.075	nt
- O=C(CNS(=O)(=O)c1cccs1)NCc1ccccc1
    0.72	1.3
- CCCN(CCN1CCNCC1)C(O)C1C(=O)CC(C)(C)CC1=O (centres undefined)
    nt	0.35
- N#CCCn1cc(/C=C2\SC(=S)NC2=O)c(-c2cccc3ccccc23)n1
    -1.4	-0.8
- FC(F)(F)c1ccc(Nc2ccc3c(c2)CCC3)nc1
    nt	0.7
- COc1ccc(-c2c(-c3ccc(O)cc3O)n[nH]c2C(F)(F)F)cc1
    -0.41	-0.1
- COc1cccc(/C(C#N)=C/c2c(-c3ccc(Cl)cc3)nc3cc(C)ccn23)c1
    -1.3	nt
- COC(=O)C(CC(C)C)NC(=O)Cn1cnc2ccccc2c1=O (centres undefined)
    nt	0.2
- CC(=O)Nc1cccc(Oc2cc(C#N)c(C#N)cc2N2CCCCCC2)c1
    0.24	0.1
- Cc1c(-n2c(-c3ccccc3Br)n[nH]c2=S)c(=O)n(-c2ccccc2)n1C
    nt	-0.75
- O=C(COC(=O)C1CC(=O)N(Cc2ccccc2)C1)c1ccc(F)cc1 (centres undefined)
    nt	-1
- Cc1onc(-c2ccccc2)c1CN1CCS(=O)(=O)CC1
    -0.3	-1.1
- Cc1c(OCc2c(F)cccc2Cl)c(=O)ccn1Cc1ccc(F)cc1
    -0.67	nt
- COc1ccc(-c2cc(C(F)(F)F)n3ncc(C(=O)Nc4c(C)n(C)n(-c5ccccc5)c4=O)c3n2)cc1
    0.42	nt
- COC(=O)c1ccc(COC(=O)C(c2ccccc2)c2ccccc2)o1
    nt	-0.5
- NNC(=O)C1SCCN1S(=O)(=O)c1ccc(Cl)cc1 (centres undefined)
    -0.08	nt
- N#C/C(=C\c1ccc(N2CCOCC2)cc1)C(=O)NCc1ccccc1
    nt	0.1
- CCc1nc2ccc(C(=O)NCc3ccccc3OC)cc2nc1CC
    -0.34	nt
- O=C(Nc1ccc(F)cc1)c1cccc2c1C(=O)N(Cc1ccccn1)C2
    -0.32	1.8
- CC(CCOC(=O)NCCOc1ccccc1)c1ccccc1 (centres undefined)
    -1.2	nt
- CC(NC(=O)c1ccc(Cl)cc1)C(=O)N1CCCCC1 (centres undefined)
    0.3	1.2
- Cc1ccc2c(c1)C(=O)C(O)(c1ccccc1)C(=O)N2 (centres undefined)
    0.52	-0.7
- COC(CNc1cccc(Cl)c1C#N)OC
    68	-0.15

Additional records.
mol,CapD inh,AID504770
O=C(O)c1cccc2[nH]c(=O)c(=O)[nH]c12,nt,-0.2
CC(CCc1ccccc1)NC(=O)COc1cc(=O)n(C)c2ccccc12 (centres undefined),-0.31,2
NC(=O)c1ccccc1NC(=O)COC(=O)CC1CC2CCC1C2 (centres undefined),1.1,0.6
CC1(C)CC(=O)c2cnc(NCCc3ccccc3)nc2C1,0.34,0
CC1CCCCN1CC(O)COc1c(F)cc(Br)cc1F (centres undefined),-0.57,-0.2
CCSCCOC(=O)C1=C(C)NC2=C(C(=O)CC(c3cccs3)C2)C1c1cccc([N+](=O)[O-])c1 (centres undefined),-0.89,nt
CC(C)(C)OC(=O)N(CCOC(=O)NCc1nc2ccccc2[nH]1)Cc1cc2ccccc2c2ccccc12,1.3,nt
CCCN1C2CCCC1CC(NC(=O)c1ccc(F)cc1)C2 (centres undefined),nt,2.5
O=C1NC(=Nc2ccccc2)S/C1=C/c1cc(Br)ccc1O,-0.46,nt
CCOC(=O)c1sc2nc(SCC(=O)NCc3ccco3)n(Cc3ccc(C)cc3)c(=O)c2c1C,0.14,nt
CCC(=O)NC(Nc1sc(C)c(CC)c1C#N)(C(F)(F)F)C(F)(F)F,0.45,-0.8
COC(=O)c1cc(S(=O)(=O)NCC2CN(Cc3ccccc3)CN(Cc3ccccc3)C2)oc1C,0.32,0.15
CC(=O)Nc1ccc(NS(C)(=O)=O)cc1,-0.3,-0.05
COc1ccc2cc3c(N)nn(C(=O)CCn4c(=S)oc5ccccc54)c3nc2c1,0.24,0.3
Oc1ccccc1-c1nc(-c2ccc3c(c2)CCO3)n[nH]1,2.3,-0.1
O=C(c1ccc(Cl)c(S(=O)(=O)NCc2cccnc2)c1)N1CCN(c2ncccn2)CC1,nt,0
CC(C)n1cc(C(N)=S)c(=O)n(Cc2ccccc2)c1=O,-0.035,nt
CC(C)(C)C(=O)Nc1ccccc1Cc1ccccc1,-0.36,-0.75
N#Cc1cccc(/C=N/NC(=O)c2ccccc2Oc2ccccc2)c1,0.06,nt
Cc1ccc(Nc2cc(C)c3ccccc3n2)cc1,51,-0.15
CN=CC1=C(O)C(C(=O)OC)C(C)(C)CC1=O (centres undefined),nt,-0.3
O=C(O)CC1CCCCO1 (centres undefined),nt,-1.5
Cc1ccc2cc(C#N)c(=O)[nH]c2c1,69,-0.75
CC(=O)N1CCOc2cc(S(=O)(=O)N3CCCc4ccccc43)ccc21,0.15,0.3
CCOc1ccc(N2CCN(C(=O)OCCc3cccc4ccccc34)CC2)cc1,-0.52,nt

An excerpt of these results, as labelled records:
CC(C)(C)C(=O)Nc1ccccc1Cc1ccccc1
  CapD inh = -0.36; AID504770 = -0.75

N#Cc1cccc(/C=N/NC(=O)c2ccccc2Oc2ccccc2)c1
  CapD inh = 0.06; AID504770 = nt

Cc1ccc(Nc2cc(C)c3ccccc3n2)cc1
  CapD inh = 51; AID504770 = -0.15

Next part
mol,CapD inh,AID504770
CCOC(=O)Cn1cc(/C=C2\C(=O)NC(=O)N(c3ccc(Br)cc3)C2=O)c2ccccc21,0.37,nt
O=C(Cn1c(-c2cccs2)cc2ccccc21)NC1CCCC1,111,-0.55
O=[N+]([O-])c1cccc2[nH]ccc12,-2.7,nt
Cc1ccc(C(=O)c2oc3ccccc3c2NC(=O)CCCN2C(=O)c3ccccc3C2=O)cc1,2.7,1.1
COc1ccc(OC)c(NC(=O)c2ccc3c(c2)CCCN3S(C)(=O)=O)c1,0.15,-0.4
N#Cc1sccc1NS(=O)(=O)c1cccc(C(F)(F)F)c1,-0.83,-0.6
CN(C(=O)COC(=O)c1ccc(C(C)(C)C)cc1)c1ccccc1,-0.57,-1
COc1ccc(N/N=C(\C#N)C(=O)NCCc2ccc(OC)c(OC)c2)cc1,-0.92,0.2
CN(Cc1ccccc1)C(=O)c1ccco1,nt,0.15
O=C(c1ccccc1)N1CCN(C(=O)c2ccccc2)CC1,0.15,0.3
CCCSc1nc2ccccc2n1CC(=O)NCc1ccccc1OC,0.21,2.3
CCOC(=O)/C(=N\Nc1cccc(C(F)(F)F)c1)N(C)C1CCS(=O)(=O)C1 (centres undefined),nt,-0.2
CC(C)(C)NC(=S)Nc1ccc2nccnc2c1,nt,-0.05
O=C(N/N=C/c1cccc(OCc2ccccc2)c1)c1csc(CS(=O)(=O)Cc2ccco2)n1,0.34,nt
Cc1nn(-c2ccccc2)c(N2CCCCC2)c1/C=N/O,0.31,-0.75
Cc1ccc(CCNC(=O)c2cc3c(C)nccc3[nH]c2=O)cc1,0.55,-0.4
O=C(/C=C1/Sc2ccccc2N(Cc2ccc(F)cc2)C1=O)N1CCCC1,-0.17,0.25
CC1CCCN(S(=O)(=O)c2ccccc2)C1 (centres undefined),-0.09,-0.7
COc1ccc(CCNCc2sccc2C)cc1,nt,-0.95
CCCC(=O)NCCc1nc2ccccc2n1CCC,-0.59,2.3
S=c1nc(C2CC2)[nH]c2ccccc12,nt,0
O=C1c2cccc3cc([N+](=O)[O-])cc(c23)C(=O)N1Cc1ccncc1,-0.02,nt
CN(C)CCN(C)CC1=CCC2CC1C2(C)C (centres undefined),-0.07,-0.4
COC(=O)c1sc2ccccc2c1O,123,-1.5
O=C1c2ccccc2C(=O)N1CC1c2ccccc2CCN1S(=O)(=O)c1ccc2[nH]c(=O)c(=O)[nH]c2c1 (centres undefined),5.2,0.15
Cc1ccc(CN2C(=O)CSC2=O)cc1,0.72,-0.35
CC1CN(C(=S)Nc2cccc(C(F)(F)F)c2)CC(C)O1 (centres undefined),-0.39,-1.1
COc1ccccc1C1CCN(Cc2sc3ccccc3c2C)CC1,1.1,-0.1
NS(=O)(=O)c1ccc(-c2ccc(/C=N/NC(=O)Cc3cccs3)o2)cc1,nt,1.1
COc1ccc2c(c1)CN(Cc1ccccc1)CO2,-0.56,-0.85
Cc1cc([N+](=O)[O-])c(C)cc1-c1ccc(/C=N/c2c(-c3ccco3)nc3ccccn23)o1,-0.29,nt
NC(=O)COc1ccc(-c2nc3ccccc3s2)cc1,15,-0.75
COc1cc(C2C(C#N)=C(N)Oc3n[nH]c(-c4cc(OC)c(OC)c(OC)c4)c32)cc(Cl)c1O (centres undefined),0.61,nt
CC1(C)CCCC(C)(C)N1CC(O)COc1ccccc1Br (centres undefined),0.57,-0.25
O=C1CSC(=O)N1CCN=Cc1c(O)n(-c2ccc(Cl)cn2)c(=O)c2ccccc12,nt,0.3
COc1ccc(Cl)cc1S(=O)(=O)NC1CCN(Cc2ccc(OC(C)C)cc2)C1 (centres undefined),0.17,nt
Cc1ccc(Sc2cc(C)nc(-c3ccccn3)n2)cc1,0.68,0
CCCCc1ccc(-c2c3c(c(-c4ccccc4)n2-c2ccc(Br)cc2)C(=O)c2ccccc2C3=O)cc1,-0.63,nt
COC(=O)Nc1ccc2c(c1)C(=O)NC2=O,43,0.1

Six entries drawn at random from the list so far:
mol,CapD inh,AID504770
CCOC(=O)c1cnc(SCC(=O)c2ccc(Cl)cc2Cl)[nH]1,-0.21,nt
COc1ccc(-c2c(-c3ccc(O)cc3O)n[nH]c2C(F)(F)F)cc1,-0.41,-0.1
NNC(=O)C1SCCN1S(=O)(=O)c1ccc(Cl)cc1 (centres undefined),-0.08,nt
CN(C(=O)COC(=O)c1ccc(C(C)(C)C)cc1)c1ccccc1,-0.57,-1
O=C1NC(=Nc2ccccc2)S/C1=C/c1cc(Br)ccc1O,-0.46,nt
Cc1ccc(Nc2cc(C)c3ccccc3n2)cc1,51,-0.15
